Arbovirus anti = antivirals against arbovirus infection, primary screen, cell-based, full library, 10K replicate subset. 200,000 tested, 0.37% active. arbovirus infection cell-based antiviral screen. inhibition, % at 10 µM;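 active means inhibition from about 30%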;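 further: bluetongue infection of BSR cells; cell survival read as ATP light after 72 h; 0% = infected wells without compound and 100% = uninfected wells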
Mtb bLac sens = beta-lactam sensitization of Mtb H37Rv, H37Rv; M. tuberculosis H37Rv growth with meropenem, percent inhibition; hits of this screen are not shown here; inhibition, % at 25 µM; 330,000 tested, 0.27% active; AID 434955, 2010;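 active means about 74% or more and at least 40 points above the plate without the antibiotic, then above 30% in a dose series; inconclusive means first-round hits that could not be retested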;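 further: growth measured after seven days incubation then overnight dye step; 0% = bacteria only wells and 100% = bacteria with antibiotic; twin plates without the antibiotic show which effects depend on it; some results filed as inactive read as strong as hits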
RecA splice inh = Mtb RecA intein splicing inhibitors, primary screen, biochemical, fluorescence, HTS; Protein RecA (Mycobacterium tuberculosis (strain ATCC 25618 / H37Rv)), P9WHJ3; cell-free RecA intein splicing; inhibition, %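 (about 9 µM by stock and volumes)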; 290,000 tested, 0.75% active; AID 2221, 2009; in the data active means inhibition above about 30%; inconclusive means no clear call, values can overlap the other calls;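 further: 0% = vehicle wells and 100% = reference inhibitor control wells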
Target sequence (P9WHJ3 whole entry, looked up, canonical isoform): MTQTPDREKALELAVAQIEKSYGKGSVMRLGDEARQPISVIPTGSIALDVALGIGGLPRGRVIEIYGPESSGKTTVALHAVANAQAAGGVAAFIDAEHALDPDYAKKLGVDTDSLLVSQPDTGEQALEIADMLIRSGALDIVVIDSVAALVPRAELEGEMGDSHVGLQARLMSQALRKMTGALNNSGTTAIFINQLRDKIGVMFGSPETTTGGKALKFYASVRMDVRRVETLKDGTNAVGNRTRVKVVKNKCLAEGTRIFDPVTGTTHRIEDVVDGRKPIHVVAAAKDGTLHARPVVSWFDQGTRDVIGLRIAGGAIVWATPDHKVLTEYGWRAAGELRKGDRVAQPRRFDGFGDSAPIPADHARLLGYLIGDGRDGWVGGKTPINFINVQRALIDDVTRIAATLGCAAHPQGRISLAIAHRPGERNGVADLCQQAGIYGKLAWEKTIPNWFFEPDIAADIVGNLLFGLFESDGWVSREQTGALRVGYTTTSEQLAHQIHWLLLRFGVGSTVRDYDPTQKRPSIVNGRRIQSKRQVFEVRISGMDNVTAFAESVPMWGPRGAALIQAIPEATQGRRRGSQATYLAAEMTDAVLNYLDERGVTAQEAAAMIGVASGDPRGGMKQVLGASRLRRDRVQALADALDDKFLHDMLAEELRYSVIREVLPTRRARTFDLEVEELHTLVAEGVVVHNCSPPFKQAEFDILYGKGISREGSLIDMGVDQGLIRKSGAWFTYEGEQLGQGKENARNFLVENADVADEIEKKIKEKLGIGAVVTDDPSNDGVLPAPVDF
Mtb growth = M. tuberculosis H37Rv growth inhibitors, H37Rv strain (AID 1626); inhibition, % at 10 µM; hits with a dose series show IC50 in µM; M. tuberculosis H37Rv growth inhibition; higher % means a stronger effect; 220,000 tested, 0.95% active;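 active means confirmed in a dose series; inconclusive means inhibition above 80% but not taken into the dose series; inactive means below 80% or under 30% at every dose of the series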;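 further: bacteria incubated seven days before Alamar blue readout; 0% = bacteria only wells and 100% = bacteria with antibiotic wells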
YopH PTP inh = YopH tyrosine phosphatase inhibitors, primary screen, biochemical, fluorescence Ex485/Em525; YopH tyrosine phosphatase [Yersinia enterocolitica]; inhibition, %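 (about 10 µM by stock and volumes)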; 140,000 tested, 0.16% active; AID 898, 2007;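 active means inhibition of 50% or more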;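 further: controls were vehicle for no effect and minimum signal wells for full effect; inactives centre near -20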
Arbovirus anti repeat = also measured in Arbovirus anti; calls as there; inhibition, %; measured here: 10K subset replicate screen; many hits read low in the repeat;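 first of two repeat runs on a subset; 0% = infected and 100% = uninfected wells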
* = called active by the depositor; ? = inconclusive; / = not tested or not shown. A portion of the library; count on the stated rates, not on these rows.

Start of the data: the first 3 compounds, ahead of the listing:
SMILES	Arbovirus anti	Mtb bLac sens	RecA splice inh	Mtb growth	YopH PTP inh	others
CC(NC(=O)CCN1C(=O)c2ccccc2C1=O)c1ccc2c(c1)CCCC2 (stereo not given)	-1	-7	0.1	5%	-4
CN1C(=O)C(=Cc2sc(=O)n(-c3ccccc3)c2N(C)C)C(=O)N(C)C1=O	/	-4	0.6	-2%	/
COc1ccc(C2c3[nH]c4ccccc4c3C[C@H]3C(=O)N(CCCO)CC(=O)N23)cc1OC (stereo not given in full)	/	-2	-0.4	/	/

All compounds of this part, previewed entries included:
SMILES	Arbovirus anti	Mtb bLac sens	RecA splice inh	Mtb growth	YopH PTP inh	others
CC(NC(=O)CCN1C(=O)c2ccccc2C1=O)c1ccc2c(c1)CCCC2 (stereo not given)	-1	-7	0.1	5%	-4
CN1C(=O)C(=Cc2sc(=O)n(-c3ccccc3)c2N(C)C)C(=O)N(C)C1=O	/	-4	0.6	-2%	/
COc1ccc(C2c3[nH]c4ccccc4c3C[C@H]3C(=O)N(CCCO)CC(=O)N23)cc1OC (stereo not given in full)	/	-2	-0.4	/	/
CC(CCc1ccccc1)NC(=O)CCNC(=O)Cn1ccc2ccccc2c1=O (stereo not given)	12	-9	-0.5	0%	/
COc1ccc(-c2nc3ccccc3c(=O)n2CCOc2ccc(C)cc2C)cc1	16	2	/	-2%	-20
COc1ccccc1NC(=O)c1nnn(CC(=O)Nc2cc(C)cc(C)c2)c1N	/	5	-0.8	/	/
CCNC(=O)C(CCSC)NS(=O)(=O)c1ccc(C)cc1 (stereo not given)	/	-12	-1.9	-5%	/
Cc1cc(/C=C2\C(=O)NC(=O)N(c3ccc(F)cc3)C2=O)c(C)n1-c1cccc(C(=O)O)c1	2	4	-1.4	-2%	/
Cc1ccc(NC(=O)CCC(=O)NNC(=O)Nc2cccc(Cl)c2)c(C)c1	/	0	-1.1	/	/
O=S(=O)(c1cc(Cl)cc(Cl)c1)N1CCCC1c1nc2ccccc2s1 (stereo not given)	-5	7	2.3	-7%	-35
CS(=O)(=O)c1cccc(-c2nnc(NC(=O)c3ccc(S(=O)(=O)N4CCCC4)cc3)o2)c1	/	-3	-0.8	/	/
O=c1c(Cl)c(N2CCN(c3ccc(F)cc3)CC2)cnn1C12CC3CC(CC(C3)C1)C2	37*	5	3.5	16%	-9
COc1cc2c(cc1OC)CN(C(=O)c1ccc(S(=O)(=O)N(C)c3ccccc3)cc1)CC2	20	0	3.6	5%	/
Cc1cccc(-c2noc(-c3c(C)noc3C)n2)c1	/	3	0.9	0%	/
CNC(=O)c1ccc(N(Cc2ccccc2C)S(C)(=O)=O)cc1	-1	0	-0.6	-10%	-23
CCN1CCN(Cc2nc(N)nc(Nc3ccc(C)c(C)c3)n2)CC1	4	-2	-0.6	-12%	-28
CCCCN(CC)Cc1c(O)ccc2c3c(c(=O)oc12)CCC3	/	-6	-61	-11%	/
N#Cc1ccc(NC(=O)CN2CCCC2)cc1Cl	5	-2	-4.0	1%	/
CCOC(=O)C(NC(=O)CC)(Nc1ccc(S(N)(=O)=O)cc1)C(F)(F)F (stereo not given)	/	2	-2.9	0%	/
C/C(=N\NS(=O)(=O)c1ccc(Cl)cc1)c1ccc(NC(=O)c2ccco2)cc1	30	2	-0.9	-1%	-26
CS(=O)(=O)Nc1cccc(C2=NN(S(C)(=O)=O)C(c3ccc4c(c3)OCO4)C2)c1 (stereo not given)	-8	8	-4.6	-3%	-19
O=C(/C=C/c1ccccc1)NCCOc1ccccc1	-1	-7	1.6	4%	-29
O=C(CN1C(=O)COc2ccccc21)NCCCN1CCN(Cc2ccccc2)CC1	2	5	9.2	1%	-38
O=C1NC(=S)N/C1=C/c1cccn1-c1ccc([N+](=O)[O-])cc1	-7	5	4.8	-2%	/
COc1cc(NC(=O)COC(=O)C2CC2)c(C)cc1[N+](=O)[O-]	4	1	-0.6	-2%	-41
Cc1ccc(S(=O)(=O)N2CCCCC2CCNC(=O)C(=O)NCC2CCCO2)cc1 (stereo not given)	/	-2	-1.5	/	/
COc1cccc(CNC(=O)CN2C(=O)c3ccccc3S2(=O)=O)c1	/	-3	4.0	/	/
O=C(NC1CCCC1)c1ccc(COCC(F)(F)F)o1	-3	2	0.1	3%	-38
C#CCn1cnc2c(oc3ccccc32)c1=O	/	?	-3.5	/	/
COCCCNC(=O)C(C#N)c1nc2ccccc2nc1N1CCN(Cc2ccccc2)CC1 (stereo not given)	14	/	0.7	31%	-3
CCOc1nc(Nc2cc(Cl)ccc2OC)nc(OCC)n1	-10	3	1.0	4%	-101
CCC1(C)OC(c2ccccc2)=C/C(=C/C=C2C(=O)NC(=O)NC2=O)O1 (stereo not given)	13	/	-6.8	7%	/
Cc1ncn(C23CC4CC(CC(O)(C4)C2)C3)n1	-8	0	-3.3	-14%	-27
Cc1ccc(C)c(NC(=O)C2CC(=O)N(C3CCCCC3)C2)c1 (stereo not given)	/	-3	2.7	/	/
COc1cc(/C=N/Nc2nc(C)nc3c2cnn3-c2ccccc2)ccc1O	1	/	-2.7	22%	/
Cc1ccc(-n2c(N)c(C(=O)Nc3c(C)n(C)n(-c4ccccc4)c3=O)c3nc4ccccc4nc32)cc1	-41	63	-0.5	73%	-23
O=C(NC(=S)Nc1ccc(N2CCOCC2)cc1)c1ccc2c(c1)OCCO2	3	73	-1.1	32%	-21
Cc1cc(NC(=O)CSc2nc(=O)cc(N)n2-c2ccc(C)c(C)c2)no1	/	-5	-1.3	/	/
CC(C)CCOc1ccc(Cl)cc1CN1CCOCC1	-2	-11	4.8	-2%	-41
COc1ccccc1N(CC(=O)NCCN1CCOCC1)S(=O)(=O)c1ccc(C)cc1	/	-5	-3.1	/	/
O=C(NC1CCN(c2ncccn2)CC1)c1ccccc1Cl	/	-9	-0.2	/	/
CCC(=O)Nc1cc(C(=O)N2CCC3(CC2)OCCO3)ccc1S(=O)(=O)c1ccc(C)cc1	-1	-4	0.3	0%	-34
CCOC(=O)N1CCN(Cc2nc3c(c(=O)[nH]c(=O)n3C)n2CCCc2ccccc2)CC1	6	/	0.5	-3%	-35
COc1ccnc(CSC(N)=Nc2ccccc2OC)c1	-3	-6	-1.3	-1%	-25
CN(C)P(=NC(=O)COc1ccc(Cl)cc1Cl)(N(C)C)N(C)C	4	-6	2.8	0%	-1
COc1ccc(OC)c(CNC(=O)CCNC(=O)Cn2ccc3ccccc3c2=O)c1	2	-5	-6.0	-10%	-5
CC12CN3CC(C)(CN(C1)C3c1cc(Br)ccc1O)C2=O (stereo not given)	6	-1	1.4	2%	10
Cc1cc(O)c(-c2cc(C(=O)Nc3sc4c(c3C(=O)NCc3ccco3)CCC4)[nH]n2)cc1C	/	-11	-1.7	5%	/
COc1cc2c(cc1OC)C(Nc1ccccc1)=NC(C)(C)C2	4	-8	1.3	-2%	-30
O=C(Nc1sc2c(c1C(=O)O)CCCC2)c1cccs1	48*	-1	1.6	-11%	-52	Arbovirus anti repeat=51*
Cc1cccc(C)c1NC(=S)N(CCN(C)C)C(C)c1cccnc1 (stereo not given)	9	-8	-1.3	2%	/
O=C1CCCN1CCC(=O)N1CCCC(Nc2ccc(F)c(F)c2)C1 (stereo not given)	/	-18	-3.9	/	/
CN(CC(=O)Nc1cccnc1Cl)S(=O)(=O)c1ccc(Cl)cc1	/	-4	0.1	/	/
CCOC(=O)C1=C(CS(=O)(=O)c2ccccc2)NC(=O)NC1c1ccc(O)c(OC)c1 (stereo not given)	/	-11	-3.4	3%	/
CC12CCC(C(=O)N(CC(=O)O)C1=O)C2(C)C (stereo not given)	-5	-1	0.3	-6%	/
O=C(NC1CC1)C1=C[C@H](c2ccc3c(c2)OCO3)C[C@H](OCc2ccc(CO)cc2)O1	-1	-2	1.3	-10%	/
Cc1cc(SCC(=O)c2cccs2)nc2c(C)cccc12	-6	70	3.1	/	-13
COc1ccc(S(=O)(=O)Nc2cccc(SC)c2)cc1OC	9	7	2.4	2%	5
CCN(CC)S(=O)(=O)c1ccc(N/N=C/c2cc(OC)c(OC)cc2OC)nc1	-9	5	-2.3	8%	7
COc1nc(OCC#N)nc(N(C)C)n1	-5	2	-0.7	0%	-35
The list goes on:
SMILES	Arbovirus anti	Mtb bLac sens	RecA splice inh	Mtb growth	YopH PTP inh	others
CCN(CC)C(=O)C1CC(=O)N(c2ccc(F)c(Cl)c2)C1 (stereo not given)	7	0	1.3	-14%	-34
CC(C)(C)c1ccc(S(=O)(=O)Nc2noc3ccccc23)cc1	/	3	0.2	/	/
O=C(NCCCCc1ccccc1)c1ccccc1F	/	2	2.9	/	/
O=C(NCc1cc(C(F)(F)F)ccc1F)C1CCC(=O)N(C2CCCCCC2)C1 (stereo not given)	/	1	3.0	/	/
O=C(CSc1n[nH]c(=O)n1-c1ccccc1)Nc1ccccc1	/	-13	0.0	-7%	/
CCCCn1c(N)c(N(CC(C)C)C(=O)c2cc(S(=O)(=O)N3CCOCC3)ccc2Cl)c(=O)[nH]c1=O	/	-3	-0.2	/	/
CCC(C)(C)NC(=O)c1cc([N+](=O)[O-])ccc1N1CCCCC1	-13	0	2.5	9%	-11
Cc1ccc(NS(=O)(=O)c2cn(C)c(=O)n(C)c2=O)cc1C	/	0	-6.1	/	/
COCC(=O)Nc1ccccc1Br	6	4	-1.8	-6%	-26
O=C1CSC(=S)N1/N=C/c1cc(Br)ccc1O	/	-3	-2.4	/	/
CCc1ccc(NC(=O)C2CCCN2S(=O)(=O)c2ccc3c(c2)C(C)(C)C(=O)N3C)cc1 (stereo not given)	/	?	3.7	/	/
O=C(NCC(c1ccco1)N1CCCC1)c1cccc(S(=O)(=O)Nc2ccc(Br)cc2)c1 (stereo not given)	/	-11	-4.0	/	/
Cn1nnc(NC(=O)c2ccc3ccccc3c2)n1	5	-7	-1.2	0%	8
COc1ccc(-c2nc3ccccn3c2NC2CCCCC2)cc1SC1CCCCC1	/	50	21	/	/
CC(C)(C)NC(=O)C1CCN(C(=O)c2ccc(-c3ccccc3)cc2)CC1	10	-3	-0.6	-6%	-1
O=C(c1cccs1)N1CCN=C1SCc1cccc(F)c1	/	-10	5.5	-10%	/
O=C(NCCCc1ccncc1)C1CCC(=O)N(Cc2ccc(Cl)cc2)C1 (stereo not given)	/	?	0.1	/	/
CC(Sc1nnc(C(F)(F)F)n1C)C(=O)NC(N)=O (stereo not given)	6	-8	0.2	-7%	-66
O=C(NN1C(=O)c2ccccc2NC1c1ccccn1)c1ccccc1 (stereo not given)	-7	10	1.8	7%	-35
COc1cccc(C2CC(C(F)(F)F)n3ncc(C(=O)NC(C)(C)C)c3N2)c1 (stereo not given)	-4	1	2.0	2%	-119
CCOc1ccccc1NC(=O)CN1C(=O)COc2ccc(Cl)cc21	-2	2	1.0	-3%	-5	Arbovirus anti repeat=0
O=C(/C=C/c1cccs1)NC(=S)Nc1ccc(C(=O)O)cc1	/	24	2.3	6%	/
CS(=O)(=O)Nc1ccc(C(=O)NCCc2ccccc2)cc1	13	-3	1.4	-1%	-20
COc1ccccc1OCC(=O)NNC(=O)c1ccoc1C	-12	-10	-1.3	6%	-34
O=S(=O)(Nc1ccc2ccccc2n1)c1ccccc1Cl	/	-4	0.1	/	/
C/C(=N\NC(=O)Cc1ccccc1)c1ccc(Cl)s1	/	-6	-4.7	/	/
COc1ccccc1/C=C(/CC(=O)NCc1ccc(F)cc1)c1nc2ccccc2s1	-4	2	5.0	8%	-24
CCN(CC)c1ccc(CN2CCCCCC2)cc1	-6	/	-1.2	2%	-25
O=C(NCCS(=O)(=O)c1ccc(Br)cc1)c1ccc(Cl)cc1Cl	/	-9	-2.0	/	/
Cc1ccc(S(=O)(=O)N(C(=O)c2ccncc2)c2ccc(OC(=O)c3ccncc3)c3ccccc23)cc1	-24	-1	47*	-13%	-30
Cc1ccc(OCC(=O)N/N=C2/SCC(=O)N2Cc2ccco2)cc1	3	-1	2.1	-3%	/
O=C(Nc1ccc2c(c1)OCO2)c1cnn2cccnc12	-10	0	0.5	-15%	-18

Pulled by structure from the entries so far, five records:
SMILES	Arbovirus anti	Mtb bLac sens	RecA splice inh	Mtb growth	YopH PTP inh	others
O=C(NCCS(=O)(=O)c1ccc(Br)cc1)c1ccc(Cl)cc1Cl	/	-9	-2.0	/	/
Cc1ccc(S(=O)(=O)N(C(=O)c2ccncc2)c2ccc(OC(=O)c3ccncc3)c3ccccc23)cc1	-24	-1	47*	-13%	-30
COc1ccccc1/C=C(/CC(=O)NCc1ccc(F)cc1)c1nc2ccccc2s1	-4	2	5.0	8%	-24
C/C(=N\NC(=O)Cc1ccccc1)c1ccc(Cl)s1	/	-6	-4.7	/	/
Cc1ccc(OCC(=O)N/N=C2/SCC(=O)N2Cc2ccco2)cc1	3	-1	2.1	-3%	/

Screening results deposited in PubChem by several laboratories.
